TRPML1 ag: human mucolipin-1 channel agonism; Q9GZU1; TRPML1-expressing cells, Ca2+ dye fluorescence, FDSS; host cell line not named in the record; reference of the full effect not given here; 410,000 compounds, 0.12% hits; activation, % (test concentration not listed); AID 624414; in the data active = activation above about 50%; inconclusive = about 30% to 50%; inactive = below about 30%; further: 0% is about no effect; the text of the record puts the active cut at 80%
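Tet-induced TRPML1-DL cells, 1,500 per well, cultured overnight, were loaded with a no-wash Ca2+ dye for 45–90 min. Calcium fluorescence was recorded on the FDSS for 110 s after compound addition, before the EC80 agonist (4 uM 54-4) was added.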
TRPML1 blocker: human mucolipin-1 channel inhibition. Q9GZU1. TRPML1-inducible cells, Ca2+ dye fluorescence, FDSS; hits give low values; inhibition of EC80 agonist-evoked calcium signal. activity change, negative = inhibition, % (no concentration beside the values). 390,000 compounds, 0.02% hits. AID 624415; in the data active means activity change below about -50%; inconclusive means about -30% to -50%; inactive means above about -30%;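 further: stimulus is agonist 54-4 at its EC80 concentration; on the % scale 0 is the no-effect control and ±100 the full control effect; compound concentration not given in the record; the text of the record puts the active cut at -80%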
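Tet-induced TRPML1-DL cells loaded with Ca8 no-wash calcium dye were read kinetically on FDSS. Compound addition was followed by EC80 agonist 54-4 (4 uM final); inhibition was read over 110 s.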
TRPV1 PAM: human TRPV1 potentiation; TRPV1-expressing cells, Fluo-8 calcium influx, capsaicin EC20 potentiation; host cell line not named in the record; control for the full effect not named in the record; potentiation, % at 8.33 µM; 320,000 compounds, 0.02% hits; active means potentiation above 80%; inconclusive means 30% to 80%; inactive means below 30%; further: 0% is about no effect
Target sequence (Q8NER1 whole entry, looked up): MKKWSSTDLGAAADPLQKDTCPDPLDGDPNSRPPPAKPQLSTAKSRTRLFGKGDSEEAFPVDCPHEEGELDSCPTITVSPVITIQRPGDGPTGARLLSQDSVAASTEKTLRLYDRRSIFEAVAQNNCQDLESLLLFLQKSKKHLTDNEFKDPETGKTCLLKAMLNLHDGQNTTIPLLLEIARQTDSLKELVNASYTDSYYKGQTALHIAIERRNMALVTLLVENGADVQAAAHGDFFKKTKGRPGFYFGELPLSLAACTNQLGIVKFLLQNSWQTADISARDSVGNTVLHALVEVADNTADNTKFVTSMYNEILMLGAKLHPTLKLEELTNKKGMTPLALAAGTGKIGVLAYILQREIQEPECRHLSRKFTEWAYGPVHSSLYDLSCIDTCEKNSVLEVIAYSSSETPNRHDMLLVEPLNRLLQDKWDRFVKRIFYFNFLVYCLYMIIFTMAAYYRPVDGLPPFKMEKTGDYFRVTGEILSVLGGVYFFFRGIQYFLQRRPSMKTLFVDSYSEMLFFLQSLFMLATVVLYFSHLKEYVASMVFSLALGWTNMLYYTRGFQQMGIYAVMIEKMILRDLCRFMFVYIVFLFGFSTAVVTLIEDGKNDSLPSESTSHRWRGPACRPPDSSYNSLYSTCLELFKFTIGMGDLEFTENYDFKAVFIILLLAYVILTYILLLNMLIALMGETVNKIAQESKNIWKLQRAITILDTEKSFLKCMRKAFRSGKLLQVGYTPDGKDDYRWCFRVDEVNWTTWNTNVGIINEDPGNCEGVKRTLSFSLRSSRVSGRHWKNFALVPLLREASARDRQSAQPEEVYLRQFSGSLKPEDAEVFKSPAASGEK
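TRPV1-expressing cells were cultured overnight at 35.5C and loaded with Fluo-8 calcium dye for 40 to 90 min at room temperature. After a 10 s baseline, compound was added and calcium influx was read kinetically for 3 min (ex 480/em 520 nm).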
Menin-MLL FL inh: inhibitors of human menin-MLL interaction, wild-type MLL peptide | 290,000 tested, under 10 active | Fluorescence polarization, fluorescein-MLL peptide displacement from menin | FP activity change, % at 61.4 µM | AID 1766; inconclusive = falling polarisation curve, or a change in total fluorescence; inactive = total fluorescence flat and polarisation flat or rising; no compound was filed as active; the % refers to the polarisation; negative = inhibition;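 further: % of control where 0% means no effect; inhibitors lower the polarisation; unlabelled MLL peptide was the positive control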
ClpP mod: qHTS Assay for Activators of ClpP; ATP-dependent Clp protease proteolytic subunit (Bacillus subtilis (strain 168)), P80244; purified B. subtilis ClpP, FRET peptide cleavage, 20 min; Potency, µM (highest dose often 57.5 µM), for inactives: top-dose activity change, negative = active; 340,000 compounds, 1.9% hits; AID 651965, 2013; active = well fitted falling curve with a large enough effect; inconclusive = small, poorly fitted or top-dose-only effect; inactive = no such curve, though single readings can be large or run the other way; further: potency means the concentration at half of the fitted maximal effect; the source files actives as falling curves though it sought activators and does not explain the sign; nearly all actives have a fitted effect of over 65% in size; many hits overshoot -100%
Target sequence (P80244 whole entry, looked up): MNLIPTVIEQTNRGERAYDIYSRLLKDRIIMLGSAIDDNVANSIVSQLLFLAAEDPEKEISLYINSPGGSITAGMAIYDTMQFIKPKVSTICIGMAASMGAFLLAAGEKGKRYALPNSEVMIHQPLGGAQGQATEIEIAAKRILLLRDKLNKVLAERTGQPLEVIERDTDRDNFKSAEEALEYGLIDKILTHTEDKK
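Buffer: 100 mM Tris/HCl pH8, 100 mM KCl, 0.05% low protease BSA, 2.5% glycerol, 0.01% Tween-20. ClpP 10 microg/mL final; 20 min RT; delta FRET normalized to ADEP and DMSO controls.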
PINK1 modulator: PINK1 expression modulation; PINK1 immunofluorescence, high-content cytometry, 24 h; Potency, µM (highest dose often 76.6 µM), without a hit: top-dose activation (PINK1 increase), actives largely listed as activators; 410,000 compounds, 0.2% hits; AID 624263; active = well fitted activation curve with a large enough effect; inconclusive = small, poorly fitted or top-dose-only effect; inactive = flat fitted curve, though single readings scatter; cell line not stated here;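 further: potency means the concentration at half of the fitted maximal effect; % of control where 0% means no effect; nearly all actives have a fitted effect of over 65% in size; a mitochondrial uncoupler was the plate control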
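Readout is PINK1 immunofluorescence, quantified alongside mitochondrial, cell and nuclear markers by laser-scanning microplate cytometry. Cells from a stable line were exposed to compound titrations (5 concentrations) for 24 hours, with CCCP controls.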
Sfp PPTase inh: blocks B. subtilis Sfp PPTase activity; Q9F4F7; Biochemical Sfp PPTase activity, qHTS; Potency, µM, for the others: max response, negative = inhibition, hits mostly inhibitors; 310,000 compounds, 3.5% hits; AID 1490; active means well fitted inhibition curve with a large enough effect; inconclusive means small, poorly fitted or top-dose-only effect, or another doubt; inactive means no such curve, though single readings can be large or run the other way;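 further: the enzyme is Sfp with the accession as filed and its product quenches rhodamine fluorescence; potency means the concentration at half of the fitted maximal effect; 0% = enzyme reaction without inhibitor and -100% = no enzyme wells; top concentration of the series not given in the record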
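Fluorescence-quenching assay: 15 nM Sfp-PPTase preincubated 15 min at room temperature with compound, then 5 uM rhodamine-CoA and 12.5 uM BHQ-2-labelled YbbR peptide added. Fluorescence (ex 525/em 598 nm) read at start and after 30 min; difference gives rate.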
An asterisk follows results filed as active; ? = inconclusive; · = no result given; [ ] = remark or other dose. Compounds were not picked by outcome; 4.4% or so of the library scored in one or more.

SMILES	TRPML1 ag	TRPML1 blocker	TRPV1 PAM	Menin-MLL FL inh	ClpP mod	PINK1 modulator	Sfp PPTase inh
CCOC(=O)[C@]12CCC=C1N(Cc1ccc3c(c1)OCO3)C(=O)[C@H](CC(=O)NCc1cccc(C(F)(F)F)c1)C2	-0.1	·	·	·	-4.0%	0.4%	·
O=C1OC(Nc2nccs2)c2ccccc21 (configuration not stated)	-0.1	5.1	-13.8	-1.6	-0.2%	-1.4%	13.3%
COc1ccc(CCNC(=O)c2ccc([N+](=O)[O-])cc2)cc1	1.7	18.9	-10.2	-4.6	·	-1.4%	0.1%
NS(=O)(=O)c1ccc(CCNS(=O)(=O)c2cccc3nsnc23)cc1	-0.3	10.6	-2.4	-4.4	·	0.7%	-14.3%
N#Cc1ccc(CSc2nnc(-c3cccnc3)n2-c2ccccc2)cc1	-0.1	-3.9	2.4	-4.9	0.6%	·	6.5%
COc1ccc(NC(=O)C[C@H]2C(=O)N(c3ccc(Br)cc3)C[C@@H]2CSC)cc1	0.3	-3.5	·	·	-0.5%	1.1%	·
Fc1ccc2nc3c(nc2c1)CCCC3	·	·	-0.5	-5.9	-0.4%	-0.6%	20.3%
Cc1cc(C)nc(NC(=NCCc2c[nH]c3ccccc23)NC(=O)c2ccco2)n1	3.9	34.9	-1.1	3.1	5.2%	-1.3%	1.4%
COc1ccc2c(c1)c(CC(=O)Nc1c(C)cccc1C)c(C)n2C(=O)c1ccc(Cl)cc1	1.3	22.9	·	·	0.3%	6.3%	·
CCN(CC)C(=O)CSc1nc2sc3c(c2c(=O)n1-c1ccc(C)cc1)CC(C)(C)SC3	2.7	80.6	19.3	0.8	-3.6%	-0.8%	-5.8%
Cc1cc(C)nc(Sc2nc(Nc3ccccc3)nc(Sc3nc(C)cc(C)n3)n2)n1	0.4	-6.6	4.9	7.7	0.1%	1.7%	-9.7%
CCN(CC)S(=O)(=O)c1ccc(NS(=O)(=O)c2cccs2)cc1	-0.7	?	6.7	-2.3	·	3.7%	7.4%
COc1ccc2c(c1)C(C)=CC(C)(C)N2C(=O)CSc1nnc(-c2ccc(C)cc2)o1	2.2	41.1	-2.9	1.3	-0.4%	7.0%[38.3 µM]	2.9%
COc1ccc(COC(=O)C2CCN(S(=O)(=O)c3ccc(C)cc3)CC2)cc1	2.8	32.0	-2.5	·	-0.9%	-0.8%	·
C=CCN1C(=O)/C(=C/c2cccs2)S/C1=N\S(=O)(=O)c1ccc(F)cc1	0.2	-10.6	?	?	-26.3%	29.4%	7.6%
COc1ccc(OCC#CCn2ccnc2)cc1	0.4	21.4	16.4	1.2	-1.7%	-1.3%	?
O=C(O)c1cccc(NC(=O)c2cc(-c3cccc(Cl)c3)nc3ccccc23)c1	1.6	24.0	-6.9	2.5	·	-1.3%	6.9%
CC1C(=O)C(C)C(c2ccccc2)N(N=O)C1c1ccccc1 (configuration not stated)	2.4	9.8	·	·	0.6%	3.5%	·
CCOC(=O)N1CCN(C(=O)CSc2ncnc3sccc23)CC1	2.5	15.0	4.1	·	·	-1.0%	·
COc1ccc(CCN(C)C(=O)CNC(=O)c2ccccc2F)cc1OC	-0.2	-1.8	2.6	-3.7	·	1.3%	15.4%
CCCCc1cc(=O)oc2cc(OC(C)C(=O)NCCN3CCOCC3)c(Cl)cc12 (configuration not stated)	0.2	1.3	3.6	-1.2	4.0%	-0.1%	0.4%
N#Cc1nc(-c2cccc3ccccc23)oc1N1CCCCC1	1.2	3.6	-4.3	-7.1	?	3.1%	6.1%
CC(=O)c1ccc(-c2c(C)cc3oc(=O)cc(-c4ccccc4)c3c2C)cc1	-0.7	-1.5	·	-5.5	-3.3%	-1.0%	-16.0%
Cn1c(=O)c2c(ncn2CC(=O)OCCCC(=O)c2ccc(Br)cc2)n(C)c1=O	0.0	10.4	·	·	·	0.1%	·
Cc1cc(NS(C)(=O)=O)c(=O)n(Cc2cccc(C(F)(F)F)c2)c1	-0.8	12.5	·	·	3.7%	0.5%	·
CN(C)S(=O)(=O)c1cccc(COC(=O)Cc2c(F)cccc2Cl)c1	2.6	57.2	-19.3	·	-1.1%	1.1%	-5.6%
O=c1sc2ccccc2c(N2CCCCC2)c1[N+](=O)[O-]	0.4	2.9	-1.7	2.6	·	-0.2%	24.0%
COC(=O)c1c(NC(=O)C(=O)N2CCCC2)sc2c1CC(C)(C)OC2	-1.0	29.3	-4.9	·	0.4%	0.1%	2.0%
O=[N+]([O-])c1ccc(-c2cn(-c3ccc(Cl)cc3)c(=S)[nH]2)cc1	0.3	8.5	5.5	-1.0	-7.5%	29.0%	-13.9%
Cc1ccc(NC(=O)CSc2nnc(Cn3c(=O)sc4ccccc43)n2C)cc1Cl	0.1	-1.9	?	4.3	2.5%	11.6%	10.5%
O=C(c1ccccc1)N1CCN2C(=O)c3ccccc3C12c1ccc(Cl)cc1 (configuration not stated)	0.7	24.1	-2.5	-1.6	0.7%	14.6%	-2.1%
CSc1nc2c(cnn2-c2ccccc2)c(=O)n1N	0.2	-1.3	-2.9	1.9	0.3%	0.8%	8.5%
COc1ccc(CNC(=O)COc2ccc(S(=O)(=O)N3CCOCC3)cc2)cc1	-0.3	10.9	12.6	·	1.3%	0.1%	·
O=C1C2C3c4ccccc4C(c4ccccc43)[C@@H]2C(=O)N1c1cccnc1 (some centres not stated)	-0.4	17.8	-3.0	-1.1	0.3%	2.0%	2.6%
N#Cc1ccsc1NC(=O)c1ccccn1	-1.3	11.3	-2.4	1.1	2.6%	1.6%	?
Cc1ccc(C(=O)CC(=O)COc2ccc(Cl)cc2)cc1	1.1	15.0	-17.9	3.1	·	-0.4%	2.9%
COc1cc(CC(=O)OCC(=O)Nc2ccc(Cl)c(S(=O)(=O)N(C)C)c2)cc(OC)c1OC	0.2	-6.2	6.4	2.9	0.4%	-0.6%	4.5%
Cc1ccc(C(=O)c2oc3ccccc3c2NC(=O)c2cc(=O)c3ccccc3o2)cc1	0.0	0.8	·	·	-2.0%	1.7%	·
CCN1CCN(c2ncnc3c2cnn3-c2ccc(Cl)cc2)CC1	0.5	42.2	1.2	3.6	-20.9%	10.7%	9.7%
C/C(=N\Nc1cc(Cl)nc(C)n1)c1ccc(C)cc1	0.6	-8.5	·	·	-2.8%	9.4%[38.3 µM]	·
O=C(Nc1ccsc1C(=O)NC1CCCCC1)c1ccccc1	1.9	-8.0	-16.8	2.9	252.4%	5.7%	8.1%
CCCN1C(=O)/C(=C/c2ccccc2OCc2ccc(C(=O)O)cc2)NC1=S	-0.1	5.0	-5.4	2.5	·	0.3%	10.3%
O=C1N=C(N2CCCCC2)S/C1=C\c1cn[nH]c1-c1ccccc1	-0.3	1.1	5.2	·	1.0%	0.9%	14.5%
Cc1cc(Br)ccc1NC(=O)CN(C)C(=O)c1cccc(S(=O)(=O)N2CCN(C)CC2)c1	0.0	8.1	·	·	-2.0%	-1.3%	·
COc1ccc(C=Nc2cccnc2N)cc1	8.0	6.7	0.7	-3.0	·	0.1%	-11.3%
O=C(COC(=O)CNC(=O)C1CCCCC1)Nc1cccc(F)c1	-0.1	25.5	-7.9	·	-2.5%	2.1%	·
O=[N+]([O-])c1ccc(N=Cc2sc3ccccc3c2O)cc1	6.1	-5.5	-8.4	·	-5.8%	-0.1%	10.7%
COCC(C)n1c(SCC(=O)N2CCOCC2)nc2ccccc2c1=O (configuration not stated)	0.3	-0.6	·	·	-2.6%	4.3%	·
COc1ccc(-n2c(=O)c(CCC(=O)N(C)Cc3cccs3)nc3ccccc32)cc1	1.8	4.3	1.3	·	-5.6%	-0.8%	·
COC(=O)[C@]12CCCCC=C1N(Cc1cccc3ccccc13)C(=O)[C@H](CC(=O)NCCc1ccccc1OC)C2	0.5	·	·	·	-5.7%	0.0%	·
Cn1c(SCC(=O)OCC(=O)c2ccccc2)nnc1-c1cccs1	0.2	-2.8	-4.2	1.5	94.0%	-3.8%[38.3 µM]	?
COc1ccc(/C=C(\C#N)C(=O)NCc2ccccc2)cc1	-0.3	6.4	-14.7	·	·	0.8%	6.0%
c1ccc(OCCn2c(-c3ccco3)nc3ccccc32)cc1	-0.2	1.5	·	5.6	-29.4%	1.6%[38.3 µM]	50.1µM*
CCOC(=O)C(O)(CCC(O)(C(=O)OCC)C(=O)OCC)C(=O)OCC	-0.3	5.0	·	0.9	-1.8%	·	17.2%
COc1c(C)cc(C(O)c2ncc(-c3ccc(Cl)cc3)[nH]2)cc1C (configuration not stated)	-0.8	·	·	·	-3.9%	5.9%	·
CC1(C(=O)NS(=O)(=O)C2CC2)CCCN(C(=O)c2ccc(C(F)(F)F)cc2)C1 (configuration not stated)	-0.1	·	·	·	-0.7%	-0.5%	·
C[C@H]1CN([C@@H](C)CO)C(=O)CCCn2nncc2CO[C@@H]1CN(C)Cc1ccc2c(c1)OCCO2	-0.3	15.5	·	·	-2.1%	1.6%	·
O=C(Nc1nc(-c2ccccc2)cs1)c1ccccc1F	0.7	5.9	-15.1	0.8	·	5.8%	-2.8%
O=C(NC(=S)NCCCN1CCOCC1)c1ccco1	-0.3	16.5	-2.7	2.8	·	-0.9%	-17.1%
COc1ccc(S(=O)(=O)N(CC(=O)N2CCCCCC2)c2ccccc2OC)cc1	0.4	34.9	-2.1	-1.1	·	-1.2%	10.4%
Other compounds follow:
SMILES	TRPML1 ag	TRPML1 blocker	TRPV1 PAM	Menin-MLL FL inh	ClpP mod	PINK1 modulator	Sfp PPTase inh
COc1ccc(N(C(=O)c2cccnc2)S(=O)(=O)c2ccc(F)cc2)cc1	4.2	9.7	-21.6	-12.0	-2.6%	1.7%	14.1%
CC(=O)c1sc(NS(=O)(=O)c2ccc(C)cc2)nc1C	0.5	4.3	8.3	-2.2	·	-1.0%	14.1%
COc1cc(C(=O)N(Cc2ccc(F)cc2)Cc2ccco2)cc(OC)c1OC	2.8	18.5	·	·	0.2%	-1.0%	·
CCc1ncc(CN2CCC(C(=O)Nc3cccc(-c4cscn4)c3)CC2)cn1	0.7	16.7	7.0	-1.5	-0.7%	1.9%	0.9%
CCOC(=O)c1ccc(NC(=O)C2=C(C)C(=O)OC23CCN(C(C)C)CC3)cc1	0.3	3.7	·	·	-1.4%	-0.1%	·
